Screening data: PubChem, National Center for Advancing Translational Sciences (NCATS)
RE007 growth inh = less growth of the S. pombe RE007 Vpr strain | S. pombe RE007 Vpr strain, BacTiter-Glo ATP luminescence, 24 h; control for the full effect not named in the record | Potency, µM (doses to about 92.2 µM), inactives show at the highest dose activity change, negative = less growth | hit rate 0.21% among 360,000; active = well fitted falling curve with a large enough effect; inconclusive = small, poorly fitted or top-dose-only effect; inactive = no such curve, though single readings can be large or run the other way;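 further: nearly all actives have a fitted effect of over 50% in size; the assay follows cell death caused by Vpr and the record does not say whether a fall means rescue or toxicity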
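Fission yeast RE007 carrying one integrated HIV-1 vpr copy, seeded at OD 0.01 in PMG+AL medium with 23 nL pinned compound. Grown 24 h at 30 degrees; viability read by BacTiter-Glo luminescence after 5 min.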
2A StopGo = lowers the luciferase signal of an FMDV 2A StopGo reporter. human cells with a luciferase reporter of 2A StopGo recoding; control for the full effect not named in the record. AID 1159524. Potency, µM (highest dose often 57.9 µM), for the others: at the highest dose signal change, negative = less light. hit rate 1.2% among 410,000; active = well fitted falling curve with a large enough effect; inconclusive = small, poorly fitted or top-dose-only effect; inactive = no such curve, though single readings can be large or run the other way; tested in HEK293T cells; further: nearly all actives have a fitted effect of over 45% in size; luciferase light after 4 h
Starred values were filed as active, the others as inactive; ? = inconclusive; [ ] = another dose, or the depositor's remark. On the % scale 0 is the no-effect control and ±100 the full control effect; potency means the concentration at half of the fitted maximal effect.

SMILES | RE007 growth inh | 2A StopGo
O=C1NC(Cc2ccccc2)c2nc3ccc(F)cc3c(=O)n2-c2ncccc21 (stereo not drawn) | -9% | -18%
CCCCc1c(Cc2ccccc2)ncn1CCc1ccccc1OC | ? | ?
Cc1cc2nc(-c3cccc(Cl)c3)c(Cc3ccccc3)n2c(C)c1Br | 8% | 18%
Cc1cc(F)ccc1-c1cc(C(=O)NCC2CCCCC2)[nH]n1 | 0% | 9%
CC(=O)c1ccc(Nc2nc(C(N)Cc3ccc(Cl)cc3)cs2)cc1 (stereo not drawn) | 2% | -21%
COC(=O)[C@@]12C[C@@H](CC(=O)NCC34CC5CC(CC(C5)C3)C4)C(=O)N(CCc3ccc(OC)c(OC)c3)C1=CCC(C)(C)C2 | -12% | ?
Cc1cccc(N2CCN(C(=O)c3oc4ccc(Br)cc4c3C)CC2)c1C | -20% | 3%
COc1ccc(-c2ccc3[nH]c4c(c3c2)CCN2C(=O)[C@@H]([C@H](C)O)[C@@H](N(C)C(=O)Nc3cc(Cl)cc(Cl)c3)C[C@@H]42)cc1 | -7% | 0%
CSc1nc(SCc2ccccc2)[nH]c(=O)n1 | 0% | -28%
CC(C)(C)OC(=O)N1CC2(CCCCC2)CC1Cc1ccc(C(F)(F)F)cc1 (stereo not drawn) | 7% | 0%
CC1=C(C(=O)N2CCCCCC2)CC(CC(=O)NC2CCCC2)C(=O)N1Cc1ccc(F)cc1 (stereo not drawn) | -3% | 0%
CCOC(=O)CN(C(=O)c1snc(C(N)=O)c1N)C(C(=O)NCCC(C)C)c1ccc(C)cc1 (stereo not drawn) | 0% | 1%
CC(C)Oc1ccc(F)cc1-c1cc(C(=O)NCc2ccc(F)cc2)[nH]n1 | -24% | 0%
COc1ccc(CNC(=O)C[C@@H]2C[C@H]3c4cc(NC(=O)NC5CCCC5)ccc4O[C@H]3[C@H](CO)O2)cc1 | -7% | -19%
C[C@@H]1CN([C@@H](C)CO)C(=O)CCCn2nncc2CO[C@@H]1CN(C)C(=O)Nc1cccc2ccccc12 | 1% | -4%
COc1ccc(Cn2cc(CN3CCc4onc(-c5ccc(Br)cc5)c4C3=O)nn2)cc1 | -5% | ?
COc1cc2nc(CN3CCN(S(=O)(=O)c4ccccc4[N+](=O)[O-])CC3)[nH]c(=O)c2cc1OC | 9% | -13%
CC(c1ccc2ccccc2c1)c1ccccc1C(=O)O (stereo not drawn) | -13% | -2%
CCN(CC)C(=O)C1=C(C)N(Cc2ccc(OC)cc2)C(=O)C(CC(=O)NCCCN(C)C)C1 (stereo not drawn) | -28% | -24%
CCCOC(=O)C1NC(=O)N2C(C(=O)OCCC)C(C)(C)S[C@H]12 (stereo partly drawn) | -3% | 2%
CC(=O)Nc1ccc(CNc2nc(NC(C)C)nc3ccsc23)cc1 | ? | -5%
CC(=O)N1C[C@@H](CO)[C@@H](N(C)C(=O)C(C)(C)C)C[C@H]1c1ccccc1 | 3% | -12%
NC(Cc1ccc(C(F)(F)F)cc1)c1csc(Nc2cc(Oc3ccccc3)ncn2)n1 (stereo not drawn) | -1%[18.4 µM] | -29%
Cc1ccc(C)c(CC(=O)N2CCCC(c3cc(C(=O)Nc4ccccc4Cl)no3)C2)c1 (stereo not drawn) | -7%[18.4 µM] | -17%
O=C(OCC(=O)N(CCc1ccccc1)Cc1ccccc1)c1cccc(S(=O)(=O)N2CCOCC2)c1 | -6% | ?

Other structures:
SMILES | RE007 growth inh | 2A StopGo
CC(C)c1ccc(CC(=O)N2CCC2(C)C(=O)NCC(C)(C)C)cc1 (stereo not drawn) | -7% | ?
CCCCN1C(=O)C(CC(=O)NCc2cccc3ccccc23)CC(C(=O)N2CCCCCC2)=C1C (stereo not drawn) | 1% | -21%
CC1(C)CN(Cc2ccccc2)C(=O)[C@H]1CC(=O)Nc1ccccc1 | 11% | -7%
C[C@@H]1CN([C@@H](C)CO)C(=O)CCCn2cc(nn2)CO[C@H]1CN(C)S(=O)(=O)c1ccc2ccccc2c1 | 1% | -17%
CCc1nc2ccc(C(=O)NCCOc3ccc(OC)cc3)cn2c1N(CC)CCN(C)C | -29% | 2%
COc1ccc(C(=O)N2CCCC(C)(C(=O)NS(=O)(=O)C3CC3)C2)c(OC)c1 (stereo not drawn) | 9% | 0%
COC(=O)[C@]12CCCCC=C1N(Cc1ccc3c(c1)OCO3)C(=O)[C@H](CC(=O)NCc1cccs1)C2 | 0% | 7%
COCCCNC(=O)C[C@@H]1C[C@@]2(C(=O)OC)CC(C)(C)CC=C2N(Cc2ccc3c(c2)OCO3)C1=O | 0% | 1%
Brc1ccc2nc(-c3ccco3)c(Cc3ccccc3)n2c1 | ? | -8%
CCCc1c(C(=O)N/N=C(\C)c2ccccn2)nnn1-c1nonc1N | 9% | -22%
Clc1ccc(-c2nc3ccc(Br)cn3c2Cc2cccc(Cl)c2)cc1 | -4% | 16%
O=C(NCCc1c[nH]c2ccccc12)c1ccc([N+](=O)[O-])o1 | -6% | -24%
CC(C)c1cc(C(=O)N(C)C2CCCN(Cc3ccccc3F)C2)n(C)n1 (stereo not drawn) | -18% | 0%
CCOC(=O)C1=CN(C(C)C)CCC1=O | 1% | -5%
COc1ccc(NC(=O)N(C)[C@H]2C[C@H]3c4[nH]c5ccc(-c6ccc7c(c6)OCO7)cc5c4CCN3C[C@H]2[C@H](C)O)cc1 | -5% | -30%
CC(NS(=O)(=O)c1ccc(Br)cc1F)[C@H](O)c1ccccc1 (stereo partly drawn) | -6% | -13%
CNc1cncc(-c2ccc(O)cc2C)n1 | 6%[18.4 µM] | -4%
Cc1ccccc1Oc1ccc2c(c1)[C@@H]1C[C@H](N(C)C(=O)NC3CCCCC3)[C@H]([C@H](C)O)C(=O)N1CC2 | 8% | -2%
CN(C(=O)c1cccc(NC(=O)Cc2ccc(NC(=O)C3CCN(C(=O)C4CCC4)CC3)cc2)c1)C1CCCCC1 | 0% | -16%
Cc1ccc(S(=O)(=O)NC(=O)C2(C)CCN2C(=O)c2ccc(C(F)(F)F)nc2C)cc1 (stereo not drawn) | 2%[18.4 µM] | -22%
CC(=O)NC(c1ccccc1)c1nc(-c2cccnc2)cs1 (stereo not drawn) | 1% | -6%
CCCCCCN1C[C@H](O)[C@@H](n2cc(COC(=O)c3ccccc3)nn2)C[C@@H]1c1ccc(Cl)cc1 | 1% | -19%
CCOC(=O)C1(C)CCN1C(=O)c1ccc(OC)cc1 (stereo not drawn) | 12% | -3%
Cc1ccc2cc(NC(=O)C3(C)CCN3CC(C)C)ccc2n1 (stereo not drawn) | -15% | 5%
Clc1cccc(CNc2ccn3nc(-c4ccco4)cc3n2)c1 | 3%[18.4 µM] | 38%[activator]

Structures shown so far that have a furan ring, fused or not, in the order listed:
SMILES | RE007 growth inh | 2A StopGo
Cc1cccc(N2CCN(C(=O)c3oc4ccc(Br)cc4c3C)CC2)c1C | -20% | 3%
Brc1ccc2nc(-c3ccco3)c(Cc3ccccc3)n2c1 | ? | -8%
O=C(NCCc1c[nH]c2ccccc12)c1ccc([N+](=O)[O-])o1 | -6% | -24%
Clc1cccc(CNc2ccn3nc(-c4ccco4)cc3n2)c1 | 3%[18.4 µM] | 38%[activator]

Going on with the list.
SMILES | RE007 growth inh | 2A StopGo
Cc1ccc(Cc2c(-c3ccc(C#N)cc3)nc3ccc(Cl)cn23)cc1 | 2% | -6%
CN(CCO)c1cccc2c1S(=O)(=O)N[C@H](Cc1ccccc1)CO2 | 2% | -20%
CCC(=O)N[C@H]1CC[C@@H](CCn2cc(C3CC3)nn2)O[C@@H]1CO | -4% | -15%
CCc1nc2ccc(C(=O)NCCCn3ccnc3)cn2c1N(C)Cc1cc2ccccc2s1 | ? | -4%
CN(Cc1ccc(F)cc1)S(=O)(=O)c1ccc2[nH]c(=O)[nH]c2c1 | -6% | -9%
O=C(Nc1ccc(F)c(Cl)c1)c1cc(C2CCCN(S(=O)(=O)c3cccc4cccnc34)C2)on1 (stereo not drawn) | 4% | -20%
COc1cc(NC(=O)CSc2nnc3ccccn23)cc(OC)c1OC | 3% | 0%
CCNC(=O)C1CCCN(C(=O)c2cccs2)CC1 (stereo not drawn) | 8%[18.4 µM] | -12%
COCCNc1nc(NCCCN2CCCC2=O)c2sccc2n1 | -27%[18.4 µM] | -14%
COc1ccc(OC)c(CNC(=O)c2[nH]c(C(F)(F)F)nc2-c2ccccc2)c1 | 9% | -13%
Cc1ccc(C(=O)NCC(=O)N(C)Cc2ccccc2C)s1 | 2% | 80%[activator]
CC(=O)[C@H]1CC[C@H]2[C@@H]3CC=C4C[C@@H](OS(=O)(=O)O)CC[C@]4(C)[C@H]3CC[C@]12C | 3%[18.4 µM] | -19%
CC(C)C[C@H]1CN(CCCC[C@@H]2CNC(=O)C(=O)N2CC2CCCCC2)C(=O)C(=O)N1CCC1CCCCC1 | -9% | 15%
CC(C)(C)c1cc(NC(=O)C2(C)CCN2C(=O)c2ccccc2CCc2ccccc2)no1 (stereo not drawn) | 3% | -22%
OC(COc1ccc(-c2ccccc2)cc1)CN1CCCCC1 (stereo not drawn) | -25% | -3%
CC(=O)N1CCN(Cc2cc(=O)oc3cc(C)c(C)cc23)CC1 | -8% | -9%
N#Cc1ccc(OCCN2CCc3ccccc3C2)cc1 | -9% | 16%
O=C(Nc1ccccc1)c1cc(C2CCCCN2C(=O)c2ccccc2)on1 (stereo not drawn) | 8% | -19%
O=C1Nc2c(Cl)cccc2C1=O | 6% | 0%
CC(C)[C@H](NC(=O)OC(C)(C)C)c1cc(C(=O)NCCO)c(N)s1 | 8% | -18%
CCCCN1C(=O)C(C(=O)OCC)CC2=C1CCCC2=O (stereo not drawn) | 1% | -5%
COc1ccccc1NC(=O)c1ccccc1SCC(=O)N1CCCC1 | -2% | -20%
O=C(C(O)c1ccccc1)N1CCN(S(=O)(=O)c2ccc(F)c(F)c2)CC1 (stereo not drawn) | -5% | -11%
CCNC(=O)C1CCCN(C(=O)c2ccc(C(F)(F)F)cc2)CC1 (stereo not drawn) | -20%[18.4 µM] | -17%
O=C(NCCOc1ccccc1)c1ccccc1F | -6% | 14%

An excerpt from above in order of formula weight, rising.
SMILES | RE007 growth inh | 2A StopGo
CC(=O)N1CCN(Cc2cc(=O)oc3cc(C)c(C)cc23)CC1 | -8% | -9%
CCNC(=O)C1CCCN(C(=O)c2ccc(C(F)(F)F)cc2)CC1 (stereo not drawn) | -20%[18.4 µM] | -17%
COCCNc1nc(NCCCN2CCCC2=O)c2sccc2n1 | -27%[18.4 µM] | -14%

Entries of single compounds as entered above. Order of values: RE007 growth inh, 2A StopGo
CC(C)(C)c1cc(NC(=O)C2(C)CCN2C(=O)c2ccccc2CCc2ccccc2)no1 (stereo not drawn) reads 3%, -22%
O=C(NCCOc1ccccc1)c1ccccc1F reads -6%, 14%
CC1=C(C(=O)N2CCCCCC2)CC(CC(=O)NC2CCCC2)C(=O)N1Cc1ccc(F)cc1 (stereo not drawn) reads -3%, 0%
CC(=O)c1ccc(Nc2nc(C(N)Cc3ccc(Cl)cc3)cs2)cc1 (stereo not drawn) reads 2%, -21%
CC(C)c1cc(C(=O)N(C)C2CCCN(Cc3ccccc3F)C2)n(C)n1 (stereo not drawn) reads -18%, 0%

The list continues:
SMILES | RE007 growth inh | 2A StopGo
O=S1(=O)CC(N2CCSCC2)CN1Cc1cn(Cc2ccc(Cl)cc2)nn1 (stereo not drawn) | 9% | -8%
CC(=O)C1=CCC(c2ccccc2)N(Cc2ccccc2)C1 (stereo not drawn) | -10% | ?
COc1ccc(C(=O)N2CCCCC2c2cc(C(=O)Nc3cccc(C#N)c3)no2)cc1 (stereo not drawn) | -4% | -24%
CC1(c2nc3ccccc3cc2C#N)OCCO1 | 10% | -14%
Cc1ccc([C@H]2C[C@@H](n3cc(COC(=O)c4ccccc4)nn3)[C@H](O)CN2Cc2cccs2)cc1 | -4% | 0%
CSc1ccc(OC2(C)CCN(Cc3cc4ccccc4o3)C2)cc1 (stereo not drawn) | -12% | -14%
Cc1cc(NCC(=O)Nc2ccc(C)c(S(=O)(=O)N3CCOCC3)c2)ccc1Br | 15% | ?
CC(C)(C)OC(=O)N(CCc1ccccc1)Cc1ccccc1OCc1cccc(NC(=O)C2CCCC2)c1 | 8% | 4%
N#Cc1cccc(C(=O)C(=O)N2CCN(C(=O)OCc3ccccc3)CC2)c1 | -6% | -17%
Cc1ccc(N2CCN(C(=O)c3[nH]c(C(F)(F)F)nc3-c3ccccc3)CC2)cc1 | -7% | -23%
Cc1ccc(NC(=O)c2ncn(CCCNCCCN3CCCC3=O)n2)cc1C | -11% | 0%
COc1ccccc1CNC(=O)C(=O)c1cn(CC(=O)N2CCCCC2)c2ccccc12 | 8% | -12%
Cc1cc(F)ccc1-c1cc(C(=O)NC(C)C)[nH]n1 | 3% | 14%
COc1ccc(C2CC(=O)CCN2S(=O)(=O)c2ccc(C)cc2)cc1 (stereo not drawn) | 0% | -9%
CC(C)C[C@@H](CN1CCC[C@@H]1CN1C(=O)C(=O)NC[C@@H]1Cc1ccc(O)cc1)N1C[C@H](Cc2ccc(O)cc2)N(CC2CCCCCC2)C(=O)C1=O | 8% | -5%
CCOc1ccc(NC(=O)COC(=O)C2COc3ccccc3O2)cc1 (stereo not drawn) | 11% | 1%
CNc1cc(-c2cccc(OC)c2F)nc2ccnn12 | -9% | 28%

Only part of the results is shown; rates above refer to the full screens.
